VDR inh = inhibitors of human vitamin D receptor. AID 504847. VDR-SRC2-3 peptide fluorescence polarization, 2 h. Potency, µM, for inactives: max response, negative = inhibition, actives largely listed as inhibitors. hit rate 0.93% among 400,000. P11473; active = well fitted inhibition curve with a large enough effect; inconclusive = small, poorly fitted or top-dose-only effect, or another doubt; inactive = no such curve, though single readings can be large or run the other way; also: series mostly up to about 120 µM
Target sequence (P11473 whole entry, looked up): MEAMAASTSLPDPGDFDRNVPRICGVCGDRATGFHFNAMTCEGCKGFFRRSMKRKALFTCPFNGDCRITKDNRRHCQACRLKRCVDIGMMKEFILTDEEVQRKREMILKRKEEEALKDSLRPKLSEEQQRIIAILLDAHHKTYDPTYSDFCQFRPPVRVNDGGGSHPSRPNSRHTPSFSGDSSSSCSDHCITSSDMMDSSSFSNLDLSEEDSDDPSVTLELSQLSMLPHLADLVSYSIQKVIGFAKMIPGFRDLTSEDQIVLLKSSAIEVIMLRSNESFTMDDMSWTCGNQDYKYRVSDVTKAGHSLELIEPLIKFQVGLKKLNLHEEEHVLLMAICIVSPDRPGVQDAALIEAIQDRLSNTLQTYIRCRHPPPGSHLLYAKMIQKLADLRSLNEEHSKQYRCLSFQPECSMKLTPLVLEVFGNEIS
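Measured by FP: displacement of SRC2-3 coactivator peptide from VDR by library compounds, following a two-hour ambient incubation.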
The depositor's hits bear a star; ? = inconclusive; [ ] = remark or other dose. % is scaled to controls: 0 for no effect and ±100 for the full control effect; potency is read from the fitted curve at half-maximal effect. This is a subset; count on the stated rates, not on these rows.

SMILES	VDR inh
Cc1cccc(CN2CCC(CNC(=O)c3c(C)oc4ncnc(N5CCCCC5)c34)CC2)c1	21%
O=C(Cn1cc[n+](Cc2ccccc2)c1)c1ccc([N+](=O)[O-])cc1	1%
O=C(Nc1ccc(S(=O)(=O)Nc2cnc3ccccc3n2)cc1)c1cc(F)c(F)cc1Cl	?
Brc1ccccc1C1Nc2cccc3cccc(c23)N1	2%
COc1ccc(N(C)S(=O)(=O)c2cccc(C(=O)NC3CCC(C)CC3)c2)cc1 (configuration not stated)	-3%
Oc1ccccc1-c1cc(-c2ccccc2)n[nH]1	11%
CC(C)Cc1nnc(NC(=O)c2cc([N+](=O)[O-])ccc2N2CCOCC2)s1	0%
Cc1ccccc1Cn1cc(NC(=O)c2noc(C(C)C)c2[N+](=O)[O-])cn1	7%
CCS(=O)(=O)N1CCCC(C(=O)NCCc2ccccc2)C1 (configuration not stated)	-7%
COc1ccc(S(=O)(=O)N2CCOC2CNC(=O)C(=O)NCCCn2ccnc2)cc1OC (configuration not stated)	3%
COc1ccc(C(=O)/C=C/c2cn(CC(O)CN3CCc4ccccc43)c3ccccc23)cc1 (configuration not stated)	3%
Cc1sc(=NC(=O)c2ccco2)n(C)c1-c1ccc(F)cc1	13%
COc1ccc(NS(=O)(=O)c2cccc(C(=O)N3CCCC3)c2)cc1	0%
COc1ccc(N2CCN(c3ccc(NC(=O)C4CCCCC4)cc3C#N)CC2)cc1	12%
COc1ccc(S(=O)(=O)Nc2ccccc2C(=O)NC(C)C)cc1OC	15%
CCC(=O)Nc1ccc(-c2csc(C)n2)cc1	1%
CCCN(C(=O)c1ccc([N+](=O)[O-])c(C)c1)c1c(N)n(Cc2ccccc2)c(=O)[nH]c1=O	-1%
Cc1cc(C)n(-c2nc3nonc3nc2-n2nc(C)cc2C)n1	-3%
CC1Oc2ccccc2N(CC(=O)Nc2ccccc2F)C1=O (configuration not stated)	-2%
CCOC(=O)C(Cc1ccc(O)c([N+](=O)[O-])c1)N1C(=O)c2ccccc2C1=O (configuration not stated)	-14%
Cc1ccc(-n2c(CCC(=O)O)ccc2-c2cccs2)cc1Cl	?
CONC(=O)C1CCN(C(=O)OCc2ccccc2)CC1	5%
CC12CCC(=O)N1C(C(=O)NCCN1C(=O)S/C(=C\c3ccc(F)cc3)C1=O)CS2 (configuration not stated)	-18%
CC(=O)c1cc(Cl)ccc1OCC(=O)NC1CCCC1	9%
CNC(=O)c1c(NC(NC(=O)c2ccco2)C(=O)c2ccc(Cl)cc2)sc2c1CCCC2 (configuration not stated)	-26%

Continuation:
SMILES	VDR inh
CCCOc1ccc(CNC(=O)c2[nH]c3cc(OC)ccc3c2Sc2ccccc2)cc1	8%
N#CC(=C(O)CN1CCN(c2ccccc2F)CC1)c1nc(-c2ccc(Cl)cc2)cs1	1%
CCOC(=O)c1c(C)[nH]c(C)c1S(=O)(=O)N(C)CC(=O)Nc1cccc(Cl)c1C	8%
Cc1cc(=O)n2nc(N3CCC(C(=O)N4CCN(C)CC4)CC3)sc2n1	-8%
O=C(Cn1nnc(-c2ccccc2Cl)n1)NCc1ccc2c(c1)OCO2	14%
O=C(O)CSc1nc2ccccc2o1	6%
COc1ccccc1CNC(=O)C(=O)NCC(c1cccs1)S(=O)(=O)c1cccs1 (configuration not stated)	5%
COc1ccc(C(=O)N2CCN(c3ccc(C(C)=O)cc3F)CC2)cc1S(=O)(=O)NC1CC1	-13%
COc1ccc(N(CC(=O)NCc2ccccc2OC)S(=O)(=O)c2c(C)nn(C)c2C)cc1	-22%
Cc1ccc(C(=O)N2CCN(c3ccc([N+](=O)[O-])c(NCc4cccnc4)c3)CC2)cc1	5%
C=CC[C@H](CC(=O)N(CCO)Cc1ccccc1)C(=O)N[C@H](COC(=O)[C@@H](CC=C)CC(=O)OC(C)(C)C)Cc1ccccc1	7%
CCC(C(=O)OCC(=O)N(CC)c1c(N)n(Cc2ccccc2)c(=O)[nH]c1=O)c1ccccc1 (configuration not stated)	-16%
C=CCNC(=S)N/N=C(\C)c1ccc(-n2ccnc2)cc1	-12%
COc1cc(OC)cc(C(=O)N2CCC(C(=O)N3CCOCC3)CC2)c1	4%
COC(=O)c1sc2ccccc2c1-n1cccc1C(=O)C(=O)Nc1ccc(Cl)cc1	8%
OC1CCCN(Cc2ccc3ccc4cccc5ccc2c3c45)C1 (configuration not stated)	-1%
COc1ccc2nc(Nc3ccccc3OC)sc2c1	9%
Nc1nc2ccccc2[nH]1	-7%
Cc1ccn2c(CN(C)CCn3nc(C)cc3C)c(C(=O)N3CCCCCC3)nc2c1	-2%
O=C(c1cc(-c2cccc(Cl)c2)on1)N1CCOCC1	3%
COc1ccccc1-c1noc(-c2ccc(N3CCC(C)CC3)c([N+](=O)[O-])c2)n1	4%
COC(=O)C1CN(C(=O)COc2ccc(Cl)c(C)c2)c2ccccc2O1 (configuration not stated)	2%
O=C(NNc1cccc(Cl)n1)c1ccccc1CC[N+](=O)[O-]	?
CC(=O)c1ccc(OCC(=O)Nc2ccc(N3CCCCC3)cc2)cc1	-13%
OCC[C@@H]1C[C@@H](O)[C@H](O)[C@@]2(CCCCO2)O1	9%

More compounds.
SMILES	VDR inh
CC(C)(O)C#Cc1ccc(C(=O)N2CCN(c3ccc(F)cc3)CC2)cc1	-2%
O=C(CNc1cccc2ccccc12)N/N=C/c1ccc(C(=O)O)cc1	-1%
COc1ccc(S(=O)(=O)NCCSCc2cccs2)cc1	-5%
Cc1ccc(S(=O)(=O)n2nc(-c3ccc(Cl)cc3)nc2NCc2ccc(F)cc2)cc1	-13%
COc1cccc(CNC(=O)C(=O)NCC(c2ccc3c(c2)OCO3)N2CCOCC2)c1 (configuration not stated)	-5%
Cc1ccc(-n2ncc(C(=O)N3CCN(C(=O)c4ccco4)CC3)c2C2CCN(C(=O)OC(C)(C)C)CC2)cc1C	-1%
COc1ccc(C2=C(C=Nc3c(C)n(C)n(-c4ccccc4)c3=O)C(c3ccccc3C)c3ccccc3O2)cc1OC (configuration not stated)	3%
Cc1ccc(-c2nc(CN(C)C(C3CC3)C3CC3)c(C)o2)cc1	7%
COc1ccccc1-c1nnc(SCC(=O)Nc2oc(C)c3c(C)n[nH]c(=O)c23)n1C	-3%
Cn1nnnc1SCC(=O)N1CCN(C(=O)c2ccco2)CC1	-17%
O=C(c1ccccc1)c1cc[n+]([O-])cc1	1%
CCCOc1ccc(NC(=O)CC2C(=O)N(CC)C(=S)N2CCNC(C)=O)cc1 (configuration not stated)	7%
O=C(NCC(c1ccc2c(c1)OCO2)N1CCOCC1)C(=O)Nc1ccccc1 (configuration not stated)	9%
CC(=O)c1nn(-c2ccccc2)cc1C(=O)c1ccc(C)cc1	-7%
Cc1cc([N+](=O)[O-])ccc1NC(=O)C[n+]1ccc(N(C)C)cc1	11%
COC(=O)c1sc2nc(N3CCCCC3)c3c(c2c1N)CCCC3	2%
Cc1ccc(-n2c(SCC(=O)NC3CCCCC3)nc3c(c2=O)SCC3)cc1	-17%
O=C(c1ccc2nc(N3CCCCC3)sc2c1)N1CCN(Cc2ccc3c(c2)OCO3)CC1	3%
CN(C)C=NC(=O)c1cc2c(n(-c3ccccc3)c1=O)CC(C)(C)CC2=O	-2%
Cc1oc(-c2cc(F)ccc2F)nc1CN1CCN(c2cnccn2)CC1	9%
CCOC(=O)c1ccc(N2C(=O)c3[nH]nc(-c4ccccc4)c3C2c2ccc(CC)cc2)cc1 (configuration not stated)	-10%
Cc1cccc(C(C(=O)NC2CCCC2)N(C(=O)c2csnn2)C2CCCC2)c1 (configuration not stated)	-1%
CCC(C)NS(=O)(=O)c1ccc(OCC(=O)NCc2ccc3c(c2)OCO3)cc1 (configuration not stated)	-13%
O=C(NN1C(=O)/C(=C/C=C/c2ccccc2)SC1=S)c1ccncc1	?
CC1CC(C)CN(S(=O)(=O)N2CCCC(C(=O)NCCc3ccc(Cl)cc3)C2)C1 (configuration not stated)	4%

(cont.)
SMILES	VDR inh
Cn1cc(CN2CCN(CCO)CC2)c(-c2ccc(Oc3ccccc3)cc2)n1	-2%
CC(NC(=O)C(=O)N1CCCCC1)C(c1cccs1)N1CCN(c2ccccc2F)CC1 (configuration not stated)	-29%
O=C(COC(=O)CCC1CCCC1)Nc1ccccc1Sc1ccccc1	-7%
Cc1cc(-c2ccc(F)cc2)nc2cc(C(N)=O)nn12	-7%
CCOC(=O)N1CCN(C2CC(=O)N(c3ccc(F)cc3)C2=O)CC1 (configuration not stated)	3%
Nc1nonc1-n1nnc(C(=O)N/N=C/c2ccc(O)cc2)c1COc1ccc(F)cc1	-28%
CN(C)C(=O)CCc1ccc2c3c([nH]c2c1)[C@]1(CCc2ccccc2)[C@@H](C(=O)N2CCCCC2)C[C@H](CC(=O)NCCCn2ccnc2)C(=O)N1CC3	8%
CC(=O)Nc1ccc(S(=O)(=O)N[C@@H](C)C(=O)Nc2ccc(N3CCOCC3)cc2)cc1	-3%
CCOC(=O)C1(Cc2ccccc2C)CCCN(C(=O)c2cc(C3CC3)[nH]n2)C1 (configuration not stated)	8%
O=C(CSc1ccccc1)NCCCc1ccccc1	-7%
S=C(c1ccc(-c2ccc(Br)cc2)o1)N1CCCCC1	-13%
CCOC(=O)[C@H]1[C@H]2COc3ccc(C)cc3[C@@H]2N2C(=O)CN(C)C(=O)[C@@]12C	3%
Cc1ccc2[nH]c(=O)c(CN(CCc3ccccc3)C(c3nnnn3Cc3ccco3)C(C)C)cc2c1 (configuration not stated)	-2%
C/C=C(\C)CN1CCC(n2nccc2NC(=O)CCCc2ccccc2)CC1	-3%
CCn1nc(C(=O)OCC(=O)N2CC(=O)Nc3ccccc32)c2ccccc2c1=O	3%
COc1ccccc1C=NN1C(=O)CSC1=S	-18%
CCCCC(=O)NNC(=O)c1c(O)c2ccccc2[nH]c1=O	-4%
Cc1ccnc(SCC(=O)n2c3c(c4ccccc42)CC(C)CC3)n1 (configuration not stated)	0%
S=C(Nc1ccc(Cl)cc1)c1nc2ccccc2s1	-12%
O=C1CCC(=O)c2ccc3c4c(ccc1c24)CC3	-6%
COc1ccc(CNC(=O)c2ccc3nc(CCc4ccccc4)oc3c2)cc1OC	-2%
CCOc1ccc(N(C)Cc2cc(=O)oc3ccc(OCC)cc23)cc1	-17%
O=C(CCC1CCCN(c2ncccn2)C1)NCc1ccccc1F (configuration not stated)	31%[activator]
COc1ccc(-n2c(SCC(=O)N3CCc4ccccc43)nc3c([nH]c4ccccc43)c2=O)cc1	6%
O=C(c1ccccc1)N1CCN(C(=O)c2ccc([N+](=O)[O-])cc2)CC1	-3%

22 entries from above, reformatted:
Molecule,VDR inh
Cc1cc(-c2ccc(F)cc2)nc2cc(C(N)=O)nn12,-7%
CCOC(=O)N1CCN(C2CC(=O)N(c3ccc(F)cc3)C2=O)CC1 (configuration not stated),3%
Nc1nonc1-n1nnc(C(=O)N/N=C/c2ccc(O)cc2)c1COc1ccc(F)cc1,-28%
CN(C)C(=O)CCc1ccc2c3c([nH]c2c1)[C@]1(CCc2ccccc2)[C@@H](C(=O)N2CCCCC2)C[C@H](CC(=O)NCCCn2ccnc2)C(=O)N1CC3,8%
CC(=O)Nc1ccc(S(=O)(=O)N[C@@H](C)C(=O)Nc2ccc(N3CCOCC3)cc2)cc1,-3%
CCOC(=O)C1(Cc2ccccc2C)CCCN(C(=O)c2cc(C3CC3)[nH]n2)C1 (configuration not stated),8%
O=C(CSc1ccccc1)NCCCc1ccccc1,-7%
S=C(c1ccc(-c2ccc(Br)cc2)o1)N1CCCCC1,-13%
CCOC(=O)[C@H]1[C@H]2COc3ccc(C)cc3[C@@H]2N2C(=O)CN(C)C(=O)[C@@]12C,3%
Cc1ccc2[nH]c(=O)c(CN(CCc3ccccc3)C(c3nnnn3Cc3ccco3)C(C)C)cc2c1 (configuration not stated),-2%
C/C=C(\C)CN1CCC(n2nccc2NC(=O)CCCc2ccccc2)CC1,-3%
CCn1nc(C(=O)OCC(=O)N2CC(=O)Nc3ccccc32)c2ccccc2c1=O,3%
COc1ccccc1C=NN1C(=O)CSC1=S,-18%
CCCCC(=O)NNC(=O)c1c(O)c2ccccc2[nH]c1=O,-4%
Cc1ccnc(SCC(=O)n2c3c(c4ccccc42)CC(C)CC3)n1 (configuration not stated),0%
S=C(Nc1ccc(Cl)cc1)c1nc2ccccc2s1,-12%
O=C1CCC(=O)c2ccc3c4c(ccc1c24)CC3,-6%
COc1ccc(CNC(=O)c2ccc3nc(CCc4ccccc4)oc3c2)cc1OC,-2%
CCOc1ccc(N(C)Cc2cc(=O)oc3ccc(OCC)cc23)cc1,-17%
O=C(CCC1CCCN(c2ncccn2)C1)NCc1ccccc1F (configuration not stated),31%[activator]
COc1ccc(-n2c(SCC(=O)N3CCc4ccccc43)nc3c([nH]c4ccccc43)c2=O)cc1,6%
O=C(c1ccccc1)N1CCN(C(=O)c2ccc([N+](=O)[O-])cc2)CC1,-3%

(list continues)
SMILES	VDR inh
O=C(CSc1ncnc2c1oc1ccccc12)NCc1ccco1	-10%
Cc1ccc(-n2cc(CNC(C)c3cnn(C)c3C)c(-c3ccc(F)cc3)n2)cc1 (configuration not stated)	8%
Cc1cccn2c(=O)c3cc(C(=O)NC4CCCC4)c(=N)n(CCCN4CCOCC4)c3nc12	5%
O=C(COC(=O)c1ccccn1)Nc1cccnc1Cl	-17%
O=C(CCNC(=O)Cn1ccc2ccccc2c1=O)NCc1ccc(F)cc1Cl	5%
CCCC(CCC)C(=O)Nc1cccc(-c2nc3cccnc3s2)c1	4%
COc1cc(OC)cc(C(=O)Nc2ccc(Nc3ccccc3)cc2)c1	-12%
CC(=O)Nc1ccccc1NC(=O)C/C(C)=N/NC(=O)c1ccncc1	-8%
Cc1cc(C)n(Cc2cc(C(=O)O)c3ccccc3n2)n1	1%
CCCCCn1nc(C(=O)N(CC)c2c(N)n(CCCC)c(=O)[nH]c2=O)c2ccccc2c1=O	-8%
COc1ccc(-n2nnnc2SCC(N)=O)cc1	4%
Cc1ccc(F)cc1S(=O)(=O)NCc1ccc(N2CCN(C)CC2)cc1	-10%
O=C(COC(=O)c1ccc(S(=O)(=O)N2CCCC2)cc1)Nc1ccc(N2CCOCC2)cc1	?
Nc1c(C(=O)Nc2ccccc2F)sc2nc(-c3ccco3)ccc12	6%
